Assay outcomes from PubChem BioAssay.
HIV Env fusion – blocks HIV Env-driven cell-cell fusion | HeLa-JRFL Env/CEM21 cell fusion, luciferase | inhibition, % at 12.3 µM | 360,000 compounds, 1.1% hits;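 active means mean replicate inhibition score of at least 50 and every replicate individually at or above 50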;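 further: 0% = plate neutral controls and 100% = maraviroc near 300 nM; one replicate is shown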
Starred values were filed as active, the others as inactive; [ ] = another dose, or the depositor's remark. These rows are one share of the data; the hit share may differ from the screen's.

SMILES	HIV Env fusion
C[C@H]1CN([C@@H](C)CO)C(=O)c2cc(C3=CCCCC3)cnc2O[C@H]1CN(C)S(C)(=O)=O	3[16.7 µM]
CCOC(=O)CCCCCC(=O)Nc1ccc2c(c1)C(=O)N([C@H](C)CO)C[C@@H](C)[C@@H](CN(C)S(=O)(=O)c1ccc(C)cc1)OCCCC[C@H](C)O2	-1
C[C@H]1CN([C@@H](C)CO)S(=O)(=O)c2ccc(/C=C/c3ccccc3)cc2O[C@@H]1CN(C)C(=O)Nc1ccc(F)cc1	14[16.7 µM]
CCC(=O)N1C[C@@H](C)[C@H](OC)CN(C)C(=O)c2ccc(NC(=O)c3cc(C)on3)cc2OC[C@@H]1C	-10[16.7 µM]
CN1C(=O)C(Br)(Br)CC1c1cccnc1 (stereo unspecified)	1
O=C(N[C@H](C(=O)N1CCC[C@H]1C(=O)NCCc1ccccc1Cl)c1ccccc1)c1cccs1	3
CN1C(=O)c2cc(NC(=O)NC3CCCC3)ccc2OC[C@H]2O[C@H](CC(=O)NCC3CC3)CC[C@@H]21	-23[16.7 µM]
COc1ccc2c3c(n(C)c2c1)[C@H](CO)N(Cc1ccccc1OC)CC31CN(CC2CC2)C1	-2[16.7 µM]
Cc1cc(N2CCN(C(=O)OC(C)(C)C)C[C@H]2C)ccc1N1CCN(Cc2ccccc2)[C@H](C)C1	42
O=C([C@H]1[C@H](CO)[C@H]2Cn3c(ccc(-c4ccccc4F)c3=O)[C@@H]1N2C(=O)C1CCC1)N1CCCCC1	7[16.7 µM]
C[C@@H]1CN([C@H](C)CO)C(=O)CCCn2cc(nn2)CO[C@@H]1CN(C)Cc1ccc(Oc2ccccc2)cc1	-1[16.7 µM]
O=C(CCN1CCCCC1)N[C@H]1CC[C@H](CC(=O)N2CCC(Cc3ccccc3)CC2)O[C@H]1CO	-3[16.7 µM]
CCCCN1CC(COCc2ccccc2)Oc2cccc(Oc3ccc(F)cc3OC)c2S1(=O)=O (stereo unspecified)	17
C[C@H](CO)N1C[C@H](C)[C@@H](CN(C)S(=O)(=O)c2ccc(Cl)cc2)Oc2ccc(NC(=O)CCCCCC(=O)Nc3ccccc3N)cc2CC1=O	24[16.7 µM]
C[C@H](CO)N1C[C@H](C)[C@H](CN(C)C(=O)CCN(C)C)OCc2ccccc2-c2ccccc2C1=O	-26[16.7 µM]
CC(C)NC(=O)N(C)C[C@H]1Oc2ccc(NC(=O)Cc3cn(C)c4ccccc34)cc2CC(=O)N([C@H](C)CO)C[C@@H]1C	-7[16.7 µM]
C=CCN=C1NC(c2ccccc2)C(C(=O)OC)=C(C)N1Cc1ccc(C(F)(F)F)cc1 (stereo unspecified)	-30
COc1ccc(NC(=O)N(C)C[C@@H]2Oc3c(NC(=O)c4cc(C)nn4C)cccc3C(=O)N([C@H](C)CO)C[C@@H]2C)cc1	-3[16.7 µM]
O=C(N[C@H]1C=C[C@@H](CC(=O)N2CCCCC2)O[C@@H]1CO)c1ccc2c(c1)OCO2	1[16.7 µM]
Cc1ccccc1S(=O)(=O)N1C[C@H](O)COC[C@@H]2O[C@@H](CC(=O)O)CC[C@H]21	-17[16.7 µM]

More compounds.
SMILES	HIV Env fusion
CCNC(=O)C[C@H]1CC[C@@H]2[C@H](COC[C@@H](O)CN2C(=O)c2ccccn2)O1	-6[16.7 µM]
CC(C)CNc1cccc2c1S(=O)(=O)N[C@H](C)CO2	21
CC=Cc1ccc2n(c1=O)C[C@H]1[C@H](CO)[C@@H](C(=O)NCCC)[C@@H]2N1C(=O)Nc1cc(F)ccc1F (mixture of isomers)	1[16.7 µM]
C[C@@H]1CN([C@@H](C)CO)S(=O)(=O)c2ccc(-c3ccc(C(=O)N(C)C)cc3)cc2O[C@@H]1CN(C)C(=O)C1CC1	10[16.7 µM]
O=C(NCCc1ccncc1)[C@H]1[C@H](CO)[C@H]2Cn3c(ccc(C4=CCCCC4)c3=O)[C@@H]1N2CC1CC1	15[16.7 µM]
COC(=O)[C@]12C[C@H](CC(=O)NCc3ccc(OC)c(OC)c3)C(=O)N(Cc3ccccc3)C1=C[C@H](C(C)C)O[C@@H]2C1CC1	-1
CCCC(=O)Nc1ccc2c(c1)C(=O)N(C)C[C@@H](OC)[C@H](C)CN(C(=O)c1ccccn1)[C@H](C)CO2	16[16.7 µM]
COc1ccc(NC(=O)N(C)C[C@@H]2Oc3cc(-c4cccc(C(=O)N(C)C)c4)ccc3S(=O)(=O)N([C@H](C)CO)C[C@@H]2C)cc1	-9[16.7 µM]
COC(=O)C[C@H]1C[C@H]2c3cc(N)ccc3O[C@H]2[C@H](CO)O1	-84[16.7 µM]
O=C(C[C@@H]1CC[C@@H]2[C@H](COC[C@@H](O)CN2C(=O)Nc2ccc(Cl)c(Cl)c2)O1)NCc1ccncc1	13[16.7 µM]
O=C(C[C@@H]1C=C[C@@H](NC(=O)C2CC2)[C@@H](CO)O1)NC1CCC1	-7[16.7 µM]
C=CCN1[C@@H](C)[C@@H](c2ccccc2)Oc2c(Cl)cccc2S1(=O)=O	10
CC(C)(C)OC(=O)N1CCC[C@@H]1C(=O)NCc1ccccc1	28
COC(=O)C1=C(C)N(C)C(=NCC2CC2)NC1c1cccc(Cl)c1 (stereo unspecified)	-6
C[C@H]1CN([C@@H](C)CO)C(=O)c2cc(-c3cccc(F)c3)cnc2O[C@@H]1CN(C)C(=O)C1CC1	14[16.7 µM]
CC(C)NC(=O)OC[C@@H]1CSCCS(=O)(=O)N1	23
CCCN(C)C[C@@H]1Oc2ncc(-c3ccccc3)cc2C(=O)N([C@@H](C)CO)C[C@H]1C	-28[16.7 µM]
CO[C@@H]1CN(C)C(=O)c2cc(NC(=O)c3cc(C)on3)ccc2OC[C@@H](C)N(CC2CC2)C[C@@H]1C	-13[16.7 µM]
CC(C)N(Cc1ccccc1)S(=O)(=O)c1n[nH]c(C(C)(C)C)n1	-21
C[C@H]1CN([C@@H](C)CO)C(=O)Cc2cc(NC(=O)Nc3cccc4ccccc34)ccc2O[C@H]1CN(C)Cc1ccncc1	7[16.7 µM]

Later entries
SMILES	HIV Env fusion
O=C(Cn1nnc(N2CCOCC2)n1)NN=Cc1ccccc1Cl	7
C[C@H](CO)N1C[C@H](C)[C@H](CN(C)S(=O)(=O)c2ccc(F)cc2)Oc2c(NC(=O)c3cnccn3)cccc2C1=O	-15[16.7 µM]
CC(C)COC(=O)N(C)C[C@@H]1OCc2ccccc2-c2ccccc2C(=O)N([C@@H](C)CO)C[C@@H]1C	20[16.7 µM]
C[C@@H]1CN([C@H](C)CO)C(=O)c2ccccc2-c2ccccc2CO[C@@H]1CN(C)C(=O)[C@@H]1CCCN1C	19[16.7 µM]
O=C(N[C@H](C(=O)N1CCC[C@H]1C(=O)NCCc1ccccc1Cl)c1ccccc1)c1ccc(Cl)cc1Cl	-2
COc1cccc(NC(=O)N2C[C@H](O)COC[C@H]3O[C@@H](CC(=O)NC4Cc5ccccc5C4)CC[C@@H]32)c1	-9[16.7 µM]
CCOC(=O)c1ccc(NC(=O)OC[C@@H]2CSCCS(=O)(=O)N2)cc1	-5
C=CC(=O)NC1CCCCN(C)C1=O (stereo unspecified)	14
O=C(C[C@H]1CC[C@H]2NC[C@@H](O)COC[C@@H]2O1)N1CCc2ccccc2C1	-10[16.7 µM]
O=S1(=O)N[C@H](Cc2ccccc2)COc2cc(N3CCOCC3)ccc21	-6
COC(=O)C[C@H]1CC[C@H]2[C@@H](COc3ccc(NC(=O)Nc4cc(C)cc(C)c4)cc3C(=O)N2C)O1	21[16.7 µM]
O=C(C[C@H]1C[C@H]2c3cc(NC(=O)c4ccc5c(c4)OCO5)ccc3O[C@H]2[C@@H](CO)O1)NCCc1ccccc1	-15[16.7 µM]
CO[C@H]1CN(C)C(=O)c2cc(NC(=O)c3ccc(Oc4ccccc4)cc3)ccc2OC[C@H](C)NC[C@@H]1C	-5[16.7 µM]
COc1ccc(-c2ccccc2[C@@H]2[C@H](C#N)N(C(=O)c3cccnc3)[C@H]2CO)cc1	-44[16.7 µM]
CCCNC(=O)Nc1ccc2c(c1)C(=O)N(C)C[C@@H](OC)[C@@H](C)CN[C@H](C)CO2	0[16.7 µM]
C[C@H]1CN([C@@H](C)CO)S(=O)(=O)c2ccc(C#CC3CCCC3)cc2O[C@H]1CN(C)Cc1cncnc1	7[16.7 µM]
C[C@@H]1CN([C@@H](C)CO)C(=O)c2ccccc2-c2ccccc2CO[C@@H]1CN(C)CC1CC1	-8[16.7 µM]
CC=Cc1ccc2n(c1=O)C[C@@H]1[C@@H](CO)[C@H](C(=O)NCc3ccc4c(c3)OCO4)[C@H]2N1C(=O)COC (mixture of isomers)	23[16.7 µM]
COc1ccc(C[C@H]2CCc3cnnn3COC[C@@H](Cc3ccccc3)NC2=O)cc1	6[16.7 µM]
O=C(C[C@@H]1CC[C@@H]2[C@H](COC[C@H](O)CN2C(=O)Cc2ccccc2)O1)NC1Cc2ccccc2C1	8[16.7 µM]

At a glance, ten of the compounds above:
SMILES	HIV Env fusion
COC(=O)C[C@H]1CC[C@H]2[C@@H](COc3ccc(NC(=O)Nc4cc(C)cc(C)c4)cc3C(=O)N2C)O1	21[16.7 µM]
O=C(C[C@H]1C[C@H]2c3cc(NC(=O)c4ccc5c(c4)OCO5)ccc3O[C@H]2[C@@H](CO)O1)NCCc1ccccc1	-15[16.7 µM]
CO[C@H]1CN(C)C(=O)c2cc(NC(=O)c3ccc(Oc4ccccc4)cc3)ccc2OC[C@H](C)NC[C@@H]1C	-5[16.7 µM]
COc1ccc(-c2ccccc2[C@@H]2[C@H](C#N)N(C(=O)c3cccnc3)[C@H]2CO)cc1	-44[16.7 µM]
CCCNC(=O)Nc1ccc2c(c1)C(=O)N(C)C[C@@H](OC)[C@@H](C)CN[C@H](C)CO2	0[16.7 µM]
C[C@H]1CN([C@@H](C)CO)S(=O)(=O)c2ccc(C#CC3CCCC3)cc2O[C@H]1CN(C)Cc1cncnc1	7[16.7 µM]
C[C@@H]1CN([C@@H](C)CO)C(=O)c2ccccc2-c2ccccc2CO[C@@H]1CN(C)CC1CC1	-8[16.7 µM]
CC=Cc1ccc2n(c1=O)C[C@@H]1[C@@H](CO)[C@H](C(=O)NCc3ccc4c(c3)OCO4)[C@H]2N1C(=O)COC (mixture of isomers)	23[16.7 µM]
COc1ccc(C[C@H]2CCc3cnnn3COC[C@@H](Cc3ccccc3)NC2=O)cc1	6[16.7 µM]
O=C(C[C@@H]1CC[C@@H]2[C@H](COC[C@H](O)CN2C(=O)Cc2ccccc2)O1)NC1Cc2ccccc2C1	8[16.7 µM]

Next results.
SMILES	HIV Env fusion
C[C@@H]1CN([C@@H](C)CO)C(=O)Cc2cc(NS(=O)(=O)c3ccc(Cl)cc3)ccc2O[C@H]1CN(C)Cc1ccc(-c2ccccc2)cc1	23[16.7 µM]
CC(C)(C)S(=O)N1Cc2cc(C(=O)O)nc(-c3cccc(-c4cccc(F)c4)c3)c2[C@H]1CCO (stereo partly specified)	9[16.7 µM]
COc1ccccc1CNC(=O)C[C@@H]1CC[C@H]2[C@@H](COc3ccc(NS(=O)(=O)c4ccc(C)cc4)cc3C(=O)N2C)O1	5[16.7 µM]
CO[C@@H]1CN(C)C(=O)c2cc(NC(=O)c3ccc(Oc4ccccc4)cc3)ccc2OC[C@H](C)NC[C@@H]1C	16[16.7 µM]
CCCNC(=O)NC[C@@H]1CC[C@H]2[C@H](CN2C(=O)C2CCOCC2)O1	-35[16.7 µM]
C[C@H]1CN([C@@H](C)CO)C(=O)c2cc(NC(=O)CCN3CCOCC3)ccc2O[C@H]1CN(C)Cc1ccc(-c2ccccc2)cc1	23[16.7 µM]
COc1cccc(CNC(=O)C[C@@H]2CC[C@H]3[C@H](COc4ccc(NC(=O)c5cccs5)cc4C(=O)N3C)O2)c1	19[16.7 µM]
C[C@H]1CN([C@@H](C)CO)C(=O)Cc2cc(NS(=O)(=O)c3ccc(Cl)cc3)ccc2O[C@H]1CN(C)Cc1ccc(-c2ccccc2)cc1	-5[16.7 µM]
CC(C)C1=CC2C3C(C(C(C)C)=CC(=O)[C@@]3(C)O)C1C(=O)C2(C)O (stereo partly specified)	-9
CN1CCN(C(=O)c2cc3c(c(-c4cccc(-c5cccc(F)c5)c4)n2)[C@@H](CCO)N(S(=O)C(C)(C)C)C3)CC1 (stereo partly specified)	-10[16.7 µM]
CO[C@@H]1CN(C)C(=O)c2ccc(NC(=O)C3CC3)cc2OC[C@H](C)N(C(=O)c2ccccn2)C[C@@H]1C	19[16.7 µM]
C[C@@H](CO)NC(=O)c1[nH]cnc1C(=O)Nc1ccccc1	-73
Cc1cc(N2CCNC[C@@H]2C)ccc1N1CCN(Cc2ccccc2)[C@H](C)C1	9
CCOC(=O)C(CNc1ccc(O)cc1)NC(=O)c1ccccc1 (stereo unspecified)	-29
CN1CCCCC(NC(=O)CSc2ccccc2)C1=O (stereo unspecified)	-17
CO[C@H]1CN(C)C(=O)c2ccc(NS(=O)(=O)c3ccccc3Cl)cc2OC[C@@H](C)NC[C@H]1C	12[16.7 µM]
O=C(N[C@H](Cc1ccccc1)C(=O)N1CCN(c2ccc(Cl)cn2)CC1)[C@H]1O[C@@H](n2ccc(=O)[nH]c2=O)[C@H](O)[C@@H]1O	-7
O=C(C[C@H]1CC[C@H]2[C@@H](COC[C@@H](O)CN2Cc2cc(F)ccc2F)O1)N[C@H]1CCN(Cc2ccccc2)C1	10[16.7 µM]
COc1ccc(NC(=O)Nc2ccc3c(c2)[C@@H]2C[C@@H](CC(=O)NCc4ccccn4)O[C@@H](CO)[C@@H]2O3)cc1	-9[16.7 µM]
CO[C@@H]1CN(C)C(=O)c2cc(NC(=O)C3CCOCC3)ccc2OC[C@@H](C)N(Cc2cccnc2)C[C@@H]1C	-6[16.7 µM]
COC(=O)c1cc2c(c3c4cc(F)ccc4n(S(=O)(=O)c4ccc(C)cc4)c13)C(=O)N(c1ccc(OC)cc1)C2	-10
